BJeLR lethal – BJeLR cell viability loss; BJeLR (HRASV12) viability, CellTiter-Glo ATP luminescence, 48 h; reference of the scale not given here; inhibition, % (concentration not given with the values); hit rate 0.17% among 300,000; AID 1554;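 active = replicate mean above 50%; inconclusive = above 50% but judged a plate artefact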;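 also: 50 nL library stock added to about 25 µL; numbers are from one replicate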
RN4220 kill – S. aureus RN4220 growth inhibition. OD600, 16 h. inhibition, % (concentration not given with the values). hit rate 0.33% among 330,000;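 active = z-score of -3 or lower and OD600 up to 0.18 on both plates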;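 also: plate controls were untreated cells for no effect and reference antibiotic for full effect; stock transfer was 100 nL into about 80 µL; one replicate is shown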
PrP UTR inh – inhibition of PrP 5' UTR reporter expression; cell-based PrP 5' UTR mRNA reporter, plate reader; inhibition, % (test concentration not listed); hit rate 0.35% among 340,000;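 active = every replicate at 50% or more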;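 also: 0 = median of the neutral control wells; tested in H4 reporter cells; numbers are from one replicate; inactives centre near -14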
ugtP null kill – kills S. aureus RN4220 lacking UgtP. S. aureus RN4220 ugtP deletion, OD600 growth, 16 h; some inactives read as strong as hits. growth inhibition, % (test concentration not listed). hit rate 0.54% among 330,000. AID 1259309;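 active = z-score under -3 and OD600 up to 0.15 on both plates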;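 also: plate controls were untreated wells for no effect and antibiotic for full effect; wells of about 80 µL received 100 nL stock; the first replicate is given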
Mtb hypoxia rep – Mtb hypoxia fluorescent reporter inhibition; M. tuberculosis hypoxia-regulated fluorescent reporter, fluorescence; fluorescence inhibition, % (no concentration beside the values); hit rate 0.1% among 300,000; AID 1159583;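 active = 35 to 45% if threefold the growth effect, above 45% if 1.5-fold the growth effect; inactive = the rest, general growth blockers included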;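 also: wells of about 50 µL received 100 nL stock; 0% = vehicle wells and 100% = reference inhibitor wells; whole bacteria with a GFP reporter of the hypoxia response; strong numbers were not always called active; many hits fall short of the cut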
Bead autofluor – compound fluorescence in toxin protease inhibitor counterscreen; compound autofluorescence counterscreen, microsphere flow cytometry; hits give high values; fluorescence intensity (concentration not given with the values); hit rate 3.1% among 360,000;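 active = at least 3 SD above the mean of all compounds, about 16000 in these data; inconclusive = too few beads counted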;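 also: 100 nL of 1 mM stock went into each well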
Mtb hypoxia rep growth – recorded beside Mtb hypoxia rep, whose call it bears; growth inhibition, %; measured here: M. tuberculosis growth (absorbance);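 0% = vehicle and 100% = reference antibiotic; read after six days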
Active calls of the source: *.

Screening CCn1c(Cn2nnc(-c3ccccc3)n2)nnc1SCC(=O)Nc1cccc(C)c1C returned BJeLR lethal 1, RN4220 kill 7.4, PrP UTR inh -28, ugtP null kill -2, Mtb hypoxia rep 1, Bead autofluor 4971 and Mtb hypoxia rep growth 3.
Screening CN(C)S(=O)(=O)c1ccc(C(=O)NCC(=O)N/N=C/c2ccccc2)cc1 returned BJeLR lethal -4, PrP UTR inh -31 and Bead autofluor 2710.
Screening Cc1ccc(C(=O)OCC(=O)N2CC(=O)Nc3ccccc32)s1 returned BJeLR lethal -8, RN4220 kill 4.0, PrP UTR inh -13, ugtP null kill -3, Mtb hypoxia rep 7, Bead autofluor 3708 and Mtb hypoxia rep growth 9.
`Cn1c(SCC#N)nc2ccccc2c1=O` gave BJeLR lethal -1, RN4220 kill 2.2, PrP UTR inh -17, ugtP null kill 5, Mtb hypoxia rep -1, Bead autofluor inconclusive and Mtb hypoxia rep growth 2.
`O=C(O)c1ccc(N/N=C/C2=Cc3ccccc3OC2)cc1` gave BJeLR lethal 12, PrP UTR inh -108 and Bead autofluor 4466.
For Cn1cccc1C(=O)OCC(=O)Nc1sccc1C#N the results were RN4220 kill 4.6, PrP UTR inh -68, ugtP null kill -2, Mtb hypoxia rep 10, Bead autofluor 3699 and Mtb hypoxia rep growth 5.
`COc1ccc(-c2c(C#N)c(SCC(=O)c3cc4ccccc4oc3=O)nc(C)c2C(=O)Nc2ccccc2)cc1` gave BJeLR lethal 24, RN4220 kill 2.6, PrP UTR inh -12, ugtP null kill 2, Mtb hypoxia rep 12, Bead autofluor 2644 and Mtb hypoxia rep growth 2.
Screening Fc1ccc(CSc2nc3ccccc3[nH]2)cc1 returned BJeLR lethal -11, RN4220 kill 2.6, PrP UTR inh -170, ugtP null kill 8, Mtb hypoxia rep 17, Bead autofluor 7656 and Mtb hypoxia rep growth 9.
For Cc1ccc(Cn2c(C)nc3ccc([N+](=O)[O-])cc3c2=O)cc1 the results were BJeLR lethal -13, RN4220 kill 2.1, PrP UTR inh -26, ugtP null kill 1, Mtb hypoxia rep 1, Bead autofluor 4244 and Mtb hypoxia rep growth -3.
For N#C/C(=N\Nc1ccc(Br)cc1)C(=N)N1CCOCC1 the results were BJeLR lethal -6, PrP UTR inh -84 and Bead autofluor 4193.
Screening Cn1c(SCC(=O)Nc2cccc(S(=O)(=O)NC3=NCCCCC3)c2)nnc1-c1ccccc1 returned BJeLR lethal -2, RN4220 kill -0.2, PrP UTR inh -11, ugtP null kill 7, Mtb hypoxia rep -6, Bead autofluor 3293 and Mtb hypoxia rep growth 6.
For Cc1cc(C(=O)NCC(c2cccs2)N2CCOCC2)ccc1[N+](=O)[O-] (stereo not drawn) the results were BJeLR lethal 4, RN4220 kill 1.9, PrP UTR inh -13, ugtP null kill 4, Mtb hypoxia rep 3, Bead autofluor 6143 and Mtb hypoxia rep growth 10.
For CCOC1CCCCC1NS(=O)(=O)c1ccc(Cl)cc1 (stereo not drawn) the results were BJeLR lethal 19, RN4220 kill 3.2, PrP UTR inh 4, ugtP null kill 8, Mtb hypoxia rep 7, Bead autofluor 8875 and Mtb hypoxia rep growth -7.
Screening O=C(O)c1ccccc1N(Cc1ccccc1)C(=O)CO/N=C/c1ccccc1 returned BJeLR lethal 10, PrP UTR inh -13 and Bead autofluor 1989.
For C=C1CCN(C(C(=O)NCc2cc(OC)c(OC)c(OC)c2)C(C)C)S(=O)(=O)c2ccccc21 (stereo not drawn) the results were RN4220 kill 2.5, ugtP null kill 3, Mtb hypoxia rep 1 and Mtb hypoxia rep growth 7.
`O=C(CCC(=O)c1ccccc1)Nc1ccccc1` gave BJeLR lethal -8, RN4220 kill 1.6, ugtP null kill 2, Mtb hypoxia rep 3, Bead autofluor 5669 and Mtb hypoxia rep growth -4.
For O=C(Nc1nnc(C2=COCCO2)o1)c1ccc([N+](=O)[O-])cc1 the results were BJeLR lethal -18, RN4220 kill 25, PrP UTR inh 5, ugtP null kill 1, Mtb hypoxia rep -12, Bead autofluor 6658 and Mtb hypoxia rep growth -19.
O=C(O)c1ccc(CSc2nnc(SCc3ccccc3)s2)cc1 was read as BJeLR lethal 0, RN4220 kill 2.7, PrP UTR inh -26, ugtP null kill 9, Mtb hypoxia rep 7, Bead autofluor 3345 and Mtb hypoxia rep growth 6.
O=C(CNC(=O)c1ccc(Br)cc1)NCC(=O)OCc1ccc(Cl)cc1 was read as BJeLR lethal -16, PrP UTR inh -28 and Bead autofluor 2581.
Screening COc1cccc(-n2c(SCC(=O)NCCC3=CCCCC3)nc3n[nH]c(C)c3c2=N)c1 returned BJeLR lethal -4, RN4220 kill 3.7 and ugtP null kill 6.
For Cc1cccc(NC(=O)Cn2c(=O)oc3cc(S(=O)(=O)N4CCCC4)ccc32)n1 the results were BJeLR lethal 1, RN4220 kill 0.6, PrP UTR inh -5, ugtP null kill 3, Mtb hypoxia rep 8, Bead autofluor 6238 and Mtb hypoxia rep growth 9.
OC1(c2ccc(F)cc2)CCN(Cc2nnnn2Cc2cccs2)CC1 was read as BJeLR lethal 5, RN4220 kill 1.5, PrP UTR inh -10, ugtP null kill -7, Mtb hypoxia rep 4, Bead autofluor 6082 and Mtb hypoxia rep growth 6.
`COCC(=O)N1CCC(Oc2ccc(C(=O)N3C[C@H]4CC[C@H]3C4)cc2)CC1` gave BJeLR lethal 6, RN4220 kill 0.1, PrP UTR inh -1, ugtP null kill -6, Mtb hypoxia rep 2, Bead autofluor 4897 and Mtb hypoxia rep growth -2.
`CCCCNC(=S)N(CCN(CC)CC)Cc1cc2cc3c(cc2[nH]c1=O)OCO3` gave BJeLR lethal -2, RN4220 kill 3.3, PrP UTR inh -6, ugtP null kill 4, Mtb hypoxia rep 3 and Mtb hypoxia rep growth 5.
For Nc1ccc(C(=O)NC2CCSc3ccccc32)cc1[N+](=O)[O-] (stereo not drawn) the results were BJeLR lethal -4, RN4220 kill -0.9, PrP UTR inh -28, ugtP null kill -3, Mtb hypoxia rep 1, Bead autofluor 6118 and Mtb hypoxia rep growth -4.
`COCCNC(=O)c1cc(S(=O)(=O)N2CCCCC2)ccc1N1CCOCC1` gave BJeLR lethal -6, RN4220 kill -2.8, PrP UTR inh -88, ugtP null kill -2, Mtb hypoxia rep -12, Bead autofluor 6324 and Mtb hypoxia rep growth -11.
Screening COc1ccc(N(C)C(=O)C2CCN(S(=O)(=O)c3cccc4nonc34)CC2)c(OC)c1 returned BJeLR lethal -10, RN4220 kill 1.1, PrP UTR inh -33, ugtP null kill 9, Mtb hypoxia rep 4, Bead autofluor 5183 and Mtb hypoxia rep growth 4.
`Cc1ccc(-c2nc(CS(=O)CC(=O)N3CCN(c4ccc(F)cc4)CC3)c(C)o2)cc1` (stereo not drawn) gave BJeLR lethal -5, RN4220 kill 2.0, PrP UTR inh -2, ugtP null kill 0, Mtb hypoxia rep -4, Bead autofluor 5234 and Mtb hypoxia rep growth 2.
For CN(Cc1nccn1C)C(=O)c1ccc2nc(Cc3ccccc3F)oc2c1 the results were BJeLR lethal 3, RN4220 kill 1.0, PrP UTR inh -36, ugtP null kill 0, Mtb hypoxia rep 7, Bead autofluor 5558 and Mtb hypoxia rep growth 9.
For CC1CC(Nc2ccccc2)c2ccccc2N1C(=O)c1cccnc1 (stereo not drawn) the results were BJeLR lethal -4, RN4220 kill 4.8, PrP UTR inh -35, ugtP null kill 6, Mtb hypoxia rep -5, Bead autofluor 7936 and Mtb hypoxia rep growth -7.

Ordered by number of heavy atoms (ascending): some entries from above.
For Cc1ccc(Cn2c(C)nc3ccc([N+](=O)[O-])cc3c2=O)cc1 the results were BJeLR lethal -13, RN4220 kill 2.1, PrP UTR inh -26, ugtP null kill 1, Mtb hypoxia rep 1, Bead autofluor 4244 and Mtb hypoxia rep growth -3.
For Cc1cc(C(=O)NCC(c2cccs2)N2CCOCC2)ccc1[N+](=O)[O-] (stereo not drawn) the results were BJeLR lethal 4, RN4220 kill 1.9, PrP UTR inh -13, ugtP null kill 4, Mtb hypoxia rep 3, Bead autofluor 6143 and Mtb hypoxia rep growth 10.
Screening O=C(O)c1ccccc1N(Cc1ccccc1)C(=O)CO/N=C/c1ccccc1 returned BJeLR lethal 10, PrP UTR inh -13 and Bead autofluor 1989.
For C=C1CCN(C(C(=O)NCc2cc(OC)c(OC)c(OC)c2)C(C)C)S(=O)(=O)c2ccccc21 (stereo not drawn) the results were RN4220 kill 2.5, ugtP null kill 3, Mtb hypoxia rep 1 and Mtb hypoxia rep growth 7.

The listing continues.
For Cc1ccc(C)c(CSc2nnc(-c3ccccn3)n2N)c1 the results were BJeLR lethal 11, RN4220 kill 4.3, PrP UTR inh -14, ugtP null kill 5, Mtb hypoxia rep 7, Bead autofluor 6042 and Mtb hypoxia rep growth -3.
Screening CC(=O)NCCn1c(SCC(=O)NCCC(C)C)nc2ccccc2c1=O returned BJeLR lethal 4, RN4220 kill -3.8, PrP UTR inh 0, ugtP null kill -10, Mtb hypoxia rep -5, Bead autofluor 23356* and Mtb hypoxia rep growth 1.
`CCCCN(Cc1cc2cc(OC)ccc2[nH]c1=O)C(=O)c1ccco1` gave BJeLR lethal 1, RN4220 kill -1.7, PrP UTR inh -5, ugtP null kill -10 and Bead autofluor 4960.
For CCn1c(=NC(=O)CS(=O)(=O)c2ccc(F)cc2)sc2cccc(OC)c21 the results were BJeLR lethal 11, RN4220 kill 15, PrP UTR inh -27, ugtP null kill 3, Mtb hypoxia rep 3, Bead autofluor inconclusive and Mtb hypoxia rep growth 0.
`Cc1cccc(C)c1N1CCN(S(=O)(=O)N2CCOCC2)CC1` gave BJeLR lethal 9, RN4220 kill 1.4, PrP UTR inh -4, ugtP null kill -6, Mtb hypoxia rep -3, Bead autofluor 23834* and Mtb hypoxia rep growth 11.
Screening COc1ccc(Sc2nc(-c3ccccn3)ncc2OC)cc1 returned BJeLR lethal -1, RN4220 kill 0.9, PrP UTR inh 2, ugtP null kill 3, Mtb hypoxia rep 14, Bead autofluor 4049 and Mtb hypoxia rep growth 34.
Screening CC(C)Oc1ncnc2c1[nH]c1ccccc12 returned BJeLR lethal -2, RN4220 kill 4.5, PrP UTR inh -68, ugtP null kill -9, Mtb hypoxia rep 4, Bead autofluor 4485 and Mtb hypoxia rep growth 3.
For COc1ccc(CN2CC(=O)N(c3ccc(C)cc3)C2=S)cc1OC the results were BJeLR lethal 5, RN4220 kill 5.2, PrP UTR inh 19, ugtP null kill 1, Mtb hypoxia rep 7, Bead autofluor 10283 and Mtb hypoxia rep growth 2.
`O=C1N=C(N2CCN(c3ccccc3)CC2)S/C1=C\c1cn[nH]c1-c1ccccc1` gave BJeLR lethal 9, RN4220 kill 6.8, PrP UTR inh -24, ugtP null kill 14, Mtb hypoxia rep 9, Bead autofluor 9942 and Mtb hypoxia rep growth 8.
For COc1ccc(CCn2c(S)nc3ccccc3c2=O)cc1 the results were BJeLR lethal 3, RN4220 kill 5.3, PrP UTR inh -53, ugtP null kill -10, Mtb hypoxia rep 0, Bead autofluor 3719 and Mtb hypoxia rep growth 13.
O=[N+]([O-])c1ccc(Cl)c(S(=O)(=O)Nc2cccc(-c3ccc(N4CCOCC4)nn3)c2)c1 was read as BJeLR lethal -1, RN4220 kill 2.6, PrP UTR inh -13, ugtP null kill 5, Mtb hypoxia rep 0, Bead autofluor 5797 and Mtb hypoxia rep growth 6.
For CCOC(=O)CNc1c(-c2ccc(Cl)cc2)nc2cnccn12 the results were BJeLR lethal 4, RN4220 kill -6.2, PrP UTR inh -15, ugtP null kill -12 and Bead autofluor 3035.
`O=C(CCCN1C(=O)c2ccccc2C1=O)Nc1ccccc1C(=O)N1CCOCC1` gave RN4220 kill 5.2, PrP UTR inh -14, ugtP null kill -3 and Bead autofluor 5142.
Screening CCOC(=O)CC1COc2ccccc2N1C(=O)c1ccc(F)cc1 (stereo not drawn) returned BJeLR lethal -5, RN4220 kill -1.2, PrP UTR inh -19, ugtP null kill 4, Mtb hypoxia rep 10, Bead autofluor 4395 and Mtb hypoxia rep growth -5.
CCOc1ccc(NC(=O)CN(C)C(=O)c2cccnc2Sc2ccc(C)c(C)c2)cc1OCC was read as BJeLR lethal 5, RN4220 kill 0.5, PrP UTR inh 3, ugtP null kill -1, Mtb hypoxia rep 3, Bead autofluor inconclusive and Mtb hypoxia rep growth -3.
O=C(COc1ccccc1Cl)Nc1ccccc1C(=O)N1CCOCC1 was read as BJeLR lethal 12, RN4220 kill 1.4, PrP UTR inh -14, ugtP null kill 3, Mtb hypoxia rep 6, Bead autofluor 4179 and Mtb hypoxia rep growth 17.
